Source: PubChem (National Center for Advancing Translational Sciences (NCATS))
GLA inh pH 4.5 = alpha-galactosidase A (human) inhibition, pH 4.5; P06280; activity change, negative = inhibition, % at 105 µM; 230,000 tested, under 10 active; purified enzyme, 4-MU-alpha-Gal fluorescence, pH 4.5; inconclusive = small, poorly fitted or top-dose-only inhibition, or a rising curve; inactive = flat fitted curve, though single readings scatter; no compound was filed as active;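 further: 0% = full activity with enzyme and -100% = basal without enzyme; dose as in the result columns while the protocol names 77 µM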
Rango dissoc inh = inhibitors of RanGTP-induced Rango-importin beta complex dissociation. actives 0.071% (n = 340,000). Biochemical FRET Rango-importin beta, RanGTP-induced dissociation. Potency, µM (highest dose often 46.1 µM), inactives show top-dose activity change, negative = inhibition. O95149+P62826. AID 540253; active means falling FRET ratio curve, often poorly fitted, with flat reads before Ran was added; inconclusive means other falling curves, or compound fluorescence or quenching; inactive means flat or rising ratio curve;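 further: potency means the concentration at half of the fitted maximal effect; % of control where 0% means no effect; nearly all actives have a fitted effect of over 45% in size; -100% = wells without RanGTP and RCC1; the record marks most hits as doubtful in a second field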
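Recombinant Rango FRET biosensor (EYFP–snurportin 1 IBB–cerulean CFP10) at 0.1 uM premixed with 0.25 uM importin beta in PBS, 1 mM DTT, 0.02% Tween-20, 0.1% BSA. Compound added 5 min; RanGTP-RCC1 (0.6 uM Ran, 2 mM GTP, 0.2 uM RCC1) then triggers release, read at 45 min.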
Rango complex inh = Rango-importin beta binding inhibition; Q14974; Rango CFP/YFP FRET sensor + importin beta, 45 min; Potency, µM (highest dose often 92.2 µM), for inactives: top-dose inhibition of complex formation; actives 0.031% (n = 340,000); AID 540263; active = rising FRET ratio curve, often small or poorly fitted; inconclusive = mostly compound fluorescence or quenching in the first reads; inactive = flat curves in all reads;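 further: potency means the concentration at half of the fitted maximal effect; 0% = DMSO wells and 100% = buffer wells lacking importin beta; nearly all actives have a fitted effect of over 15% in size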
Target sequence (Q14974 whole entry, looked up): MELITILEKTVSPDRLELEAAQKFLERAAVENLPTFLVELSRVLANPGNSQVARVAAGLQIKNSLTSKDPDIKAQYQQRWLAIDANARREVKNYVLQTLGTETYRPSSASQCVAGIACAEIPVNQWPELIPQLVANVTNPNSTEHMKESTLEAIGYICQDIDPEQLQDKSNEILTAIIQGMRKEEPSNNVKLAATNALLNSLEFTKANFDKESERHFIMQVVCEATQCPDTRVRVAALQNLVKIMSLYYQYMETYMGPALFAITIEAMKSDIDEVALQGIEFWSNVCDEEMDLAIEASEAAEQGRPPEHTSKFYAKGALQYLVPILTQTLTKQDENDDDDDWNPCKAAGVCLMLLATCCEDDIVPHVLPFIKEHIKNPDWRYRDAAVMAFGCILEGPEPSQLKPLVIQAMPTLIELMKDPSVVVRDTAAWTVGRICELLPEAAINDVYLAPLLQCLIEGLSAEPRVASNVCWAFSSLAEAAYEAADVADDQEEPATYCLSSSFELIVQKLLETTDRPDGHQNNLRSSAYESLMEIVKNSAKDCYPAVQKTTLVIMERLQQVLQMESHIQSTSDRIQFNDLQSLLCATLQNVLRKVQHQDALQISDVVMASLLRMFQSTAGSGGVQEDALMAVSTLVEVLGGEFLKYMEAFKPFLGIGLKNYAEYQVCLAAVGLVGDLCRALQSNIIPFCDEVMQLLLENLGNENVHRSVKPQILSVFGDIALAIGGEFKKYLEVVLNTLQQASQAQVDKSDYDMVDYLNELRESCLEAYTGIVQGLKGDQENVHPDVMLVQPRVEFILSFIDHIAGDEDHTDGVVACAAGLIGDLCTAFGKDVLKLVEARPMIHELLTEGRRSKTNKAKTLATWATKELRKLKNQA
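FRET biosensor Rango (snurportin 1 IBB between N-terminal EYFP and C-terminal Cerulean), 50 nM in PBS/1 mM DTT/0.02% Tween-20/0.1% BSA, preincubated 5 min RT with compound; 0.125 microM importin beta added, 45 min RT, CFP/YFP FRET ratio read.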
miR-21 reporter = miR-21 reporter, rising signal; HeLa miR-21 FLuc reporter, luciferase, 48 h; Potency, µM (highest dose often 38.3 µM), for inactives: at the highest dose reporter change, positive = more light; 340,000 tested, under 10 active; active = well fitted rising curve with a large enough effect; inconclusive = small, poorly fitted or top-dose-only effect; inactive = no such curve, though single readings can be large or run the other way;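 further: % of control where 0% means no effect; miR-21 action dims this reporter so a rising signal means less miR-21 action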
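HeLa cells stably expressing CMV-driven firefly luciferase with a downstream miR-21 binding sequence, endogenously expressing miR-21, were treated with titrations (up to about 40uM final) for 48 hours at 37 degree Celsius. Luciferase luminescence was read after lysis.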
* hit, by the source's call; ? = inconclusive; nt = not tested or not shown; & = joins results of further samples; [ ] = remark or other dose.

SMILES | GLA inh pH 4.5 | Rango dissoc inh | Rango complex inh | miR-21 reporter
N#C/C(=C\c1c(N2CCCCC2)nc2ccccn2c1=O)C(=O)NCc1ccco1 | -3 | -15% | ? | -2%
Cc1oc2nc(SCC(=O)NC3CCCCC3)nc(N)c2c1C | nt | 0% | 0.4% | nt
Cc1ccc(-c2nn(C)c(=O)c3ccccc23)cc1CNC(=O)c1ccco1 | 4 | 0% | 0.1% | -11%
O=C(Nc1cccc(/C=C/c2ccccn2)c1)c1ccc(-n2cncn2)c([N+](=O)[O-])c1 | nt | 1% | 0.1% | nt
N#C/C(=C(/O)CCCl)c1ccccn1 | ? | ? | ? | 1%
CC(C)(C)c1ccccc1OCC(=O)NCc1ccccc1 | nt | -16% | 4.7% | -7%
COc1ccc2nc(NC(=O)CSc3nnc(N)s3)sc2c1 | -2 | -14% | 3.9% | -2%
Cc1cc(C)c(OCC(=O)OC(C)C(=O)N2CCc3ccccc32)c(C)c1 (stereo not given) | nt | 43% | 6.6% | nt
CCCNC(=O)/C(C#N)=C1\N=C(NC(=O)c2ccco2)c2ccccc21 | nt | ? | ? | -15%
CCC(=O)O[C@@H]1CC(=O)O[C@H](C)CC=CC=C[C@@H](O)[C@H](C)C[C@H](CC=O)[C@H](O[C@H]2O[C@H](C)[C@@H](O[C@H]3C[C@@](C)(O)[C@@H](OC(=O)CC)[C@H](C)O3)[C@H](N(C)C)[C@H]2O)[C@H]1OC | 6 | nt | nt | 11%
CSc1ccc(-c2nc(CSCC(=O)NCCCN3CCCC3=O)c(C)o2)cc1 | nt | 21% | 0.3% | 7%
COc1cccc(/C=C/c2ccccn2)c1O | -12 | 13% | -0.8% | -48%
Cc1onc(-c2ccccc2Cl)c1C(=O)NC1CCCCCC1 | nt | 2% | 0.4% | -8%
Cc1ccc(NC(=O)CCC(=O)N2CCN(S(=O)(=O)c3ccc(C)cc3)CC2)cc1 | nt | 47% | -4.8% | nt
CCCCc1nnc(NC(=O)CCS(=O)(=O)c2ccc(C)cc2)s1 | nt | 7% | -0.9% | nt
COC(=O)c1ccccc1NC(=O)Cn1nc2n(C)c3ccccc3n2c(=O)c1=O | -6 | nt | nt | -2%
O=C1CCSc2cccc3cccc(c23)N1 | -13 | -2% | 2.9% | -7%
CC1=C(C)CC(C(=O)NC2CCN(C(C)C)CC2)C(C(=O)O)C1 (stereo not given) | nt | -1% | -3.3% | 3%
Cc1ccc(NC(=O)c2ccc(OC(=O)CCN3C(=O)c4ccccc4C3=O)cc2)cc1 | -1 | 5% | -0.8% | -47%
COc1ccc(C(=O)OCC(=O)Nc2ccc(N3CCOCC3)cc2)cc1 | nt | 14% | -0.4% | nt
COc1cc(CC(=O)OCC(=O)NCCc2ccc(S(N)(=O)=O)cc2)cc(OC)c1OC | nt | -1% | -0.7% | nt
CC1CCN(c2ncnc3ccccc23)CC1 | -6 | 9% | 6.2% | 3%
CC(C)(C)OC(=O)NCC(=O)NCC(=O)OCc1ccccc1 | 13 | 13% | -0.7% | -5%
O=C(Oc1ccc2ccc(O)cc2c1)c1ccccc1Cl | nt | 17% | -2.9% | -52%
CC(C)(C)c1ccc(OCc2ccc(C(=O)Nc3cccnc3)o2)cc1 | nt | 1% | -1.0% | 12%
SMILES | GLA inh pH 4.5 | Rango dissoc inh | Rango complex inh | miR-21 reporter
CSc1ccccc1NC(=O)c1csc(C)c1 | nt | 1% | -0.3% | -29%
Cc1ccccc1OCC(=O)O/N=C(\N)Cc1ccc(Cl)cc1 | -4 | 5% | -1.2% | -5%
O=C(O)CN1C(=O)CCS(=O)c2ccccc21 (stereo not given) | 2 | -3% | -1.2% | -1%
CCN(CC)CCNC(=O)C12CC3CC(C)(CC(C)(C3)C1)C2 | 3 | 17% | 0.9% | -2%
Cc1ccc(-c2nc(N)n(C(=O)Cc3ccccc3)n2)cc1 | 8 | 3% | 3.7% | -12%
[O-]/[N+](=N\Nc1ccc(Cl)cc1)c1ccccc1 | nt | -2% | 4.8% | nt
COc1ccc(NC(C)=O)cc1NC(=O)c1cccc(S(=O)(=O)N2CCc3ccccc32)c1 | nt | 6% | -3.3% | nt
CC(=O)c1ccc(NC(=O)C2=CC(c3ccc4c(c3)OCO4)=NS(=O)(=O)N2C)cc1 | nt | 14% | 7.9% | 0%&-3%
O=c1[nH]nc(CNc2ccc(C(F)(F)F)cc2)c2ccccc12 | -2 | 16% | -0.2% | -35%
O=C(CC1CCCCC1)NCc1ccccc1 | nt | -7% | -3.3% | -43%
COC(=O)c1nccc2c1[nH]c1ccccc12 | nt | -12% | 2.4% | nt
CC(=O)NN1C(=O)/C(=C/c2ccc(Br)o2)SC1=S | -7 | 5% | 12% | 11%
COc1ccc(CN(C)CC(=O)Nc2cc(OC)c([N+](=O)[O-])cc2C)c(OC)c1 | -3 | 10% | 0.3% | -2%
CN(CCc1ccccn1)c1ncnc2[nH]ncc12 | -11 | 32% | 3.7% | -34%
CCN(CC(=O)Nc1c(F)cccc1F)C(=O)c1ccc(OCC(=O)N2CCOCC2)c(OC)c1 | nt | -8% | -1.3% | nt
CCn1cc2nc(SCC(=O)Nc3ccc(OC)c(OC)c3)n(Cc3ccc(OC)cc3)c(=O)c2n1 | nt | 0% | -1.8% | -13%
CCC(CC)N1CCN(CCc2ccccc2)C(CCO)C1 (stereo not given) | 4 | 9% | 2.5% | 1%
CCOc1ccccc1NC(=O)C(CC(C)C)NC(=O)C1CCC(C)CC1 (stereo not given) | 4 | -4% | -3.2% | 10%&3%
Cc1cc(C)nc(SCc2nnc(SCC(=O)Nc3c(C)cccc3C)o2)n1 | 6 | 2% | -0.3% | -8%
CCN1CCCc2cc(CN(CCN3CCOCC3)C(=S)Nc3ccccc3OC)ccc21 | 0 | 2% | -0.5% | 1%
CC(=O)Nc1ccc(S(=O)(=O)N2CCN3CCCC3C2)cc1 (stereo not given) | nt | -8% | ? | -3%
COC(=O)c1c(N)sc(C(=O)N2CCOCC2)c1C | -3 | -2% | -0.3% | -9%
CCOc1cc2c(C#N)c(N(CC)CC)nc(N)c2c(N)n1 | nt | ? | ? | nt
Cc1ccc(-c2nc(C)sc2CC(=O)NCc2ccco2)cc1 | 10 | 1% | -1.5% | -6%
COc1cccc(NC(=O)CSCc2cc(=O)n3nc(C4CC4)sc3n2)c1 | nt | 4% | -1.4% | -5%

One compound at a time, as listed above.
CCN(CC)CCNC(=O)C12CC3CC(C)(CC(C)(C3)C1)C2 as listed: GLA inh pH 4.5 = 3; Rango dissoc inh = 17%; Rango complex inh = 0.9%; miR-21 reporter = -2%
Cc1cc(C)nc(SCc2nnc(SCC(=O)Nc3c(C)cccc3C)o2)n1 as listed: GLA inh pH 4.5 = 6; Rango dissoc inh = 2%; Rango complex inh = -0.3%; miR-21 reporter = -8%

(list continues)
SMILES | GLA inh pH 4.5 | Rango dissoc inh | Rango complex inh | miR-21 reporter
CCn1c(=O)c(=O)[nH]c2cc(C(=O)NCC3CCCCC3)ccc21 | -8 | -21% | -0.6% | -7%
CC(C)S(=O)(=O)C/C(N)=N/OS(=O)(=O)c1ccc(Cl)cc1 | -4 | -6% | -1.4% | 1%
O=C(C[C@H]1C/C=C\C[C@@H](Cc2ccc(F)cc2)C(=O)O[C@@H](c2ccccc2)CNC1=O)N[C@@H](CO)Cc1ccccc1 | nt | 6% | -4.3% | nt
CCC(C)N(C(=O)C(F)(F)F)C(C(=O)NC1CCCCC1)c1ccncc1 (stereo not given) | 6 | -1% | 1.8% | -2%
CCSc1nc2c(sc3nc(C)cc(C)c32)c(=O)[nH]1 | -7 | nt | nt | -7%
CCOC(=O)C1=C(NC#N)OC(C)=C(C)C1c1ccc(O)cc1 (stereo not given) | 0 | -11% | -4.3% | -10%
Cc1cc(C)n2nc(C(=O)NCc3ccccc3)nc2n1 | -4 | 18% | -3.2% | -1%
CCn1ncc(C2=NOC(C(=O)Nc3ccc4c(c3)OCO4)C2)c1C (stereo not given) | 6 | -7% | 1.9% | -10%
COc1ccc(COC(=O)CCS(=O)(=O)c2ccc(C)cc2)cc1F | nt | 16% | 2.6% | nt
CCOC(=O)N1CCC2(CC1)C(C#N)=C(N)Oc1c2sc2nc(C)cc(C)c12 | -14 | 6% | 1.0% | -15%
CCn1c(SCC(O)c2ccccc2)nnc1-c1ccccc1 (stereo not given) | 6 | 3% | -6.7% | -42%
Cc1cc([N+](=O)[O-])cc2c1NCC1CC=CC21 (stereo not given) | -3 | 9% | 0.6% | 2%
COc1cc(NC(=O)Cc2c(C(=O)O)n(C)c3ccccc23)cc(OC)c1OC | -7[21.1 µM] | -1% | 2.3% | 7%
Cc1nnsc1C(=O)Nc1ccccc1 | -6 | 7% | 5.2% | -4%
COc1ccccc1-c1c(C)nn2c(-c3ccccc3)cc(C)nc12 | -3 | -15% | 2.3% | 11%
COc1ccc(N2CCN(C(CNC(=O)c3ccc4c(c3)OCO4)c3ccco3)CC2)cc1 (stereo not given) | 0 | 11% | -0.7% | 2%
Cc1ccc(C)c(OCC(O)CN2CCN(CCN3C(=O)c4cccc5cccc(c45)C3=O)CC2)c1 (stereo not given) | -17 | -11% | -4.0% | 23%
CCc1ccc(NC(=O)CSc2n[nH]c(C)c2[N+](=O)[O-])cc1 | 7 | -3% | 0.0% | -10%
CS(=O)(=O)N1CCN(C(=O)Nc2ccccc2)CC1 | -3 | -1% | 4.5% | -3%
CCOc1ccc(CNc2ccc(N3CCOCC3)c(C(=O)O)c2)cc1 | -4 | -14% | -11% | -9%
Cn1cccc1/C=C1\CCC/C(=C\c2cccn2C)C1=O | -4 | ? | ? | -59%
CCOC(=O)Cn1c(-c2ccccc2)cc(SC)c(C#N)c1=O | nt | -1% | 5.0% | -1%
COc1ccc(OC)c(S(=O)(=O)NCC(c2ccco2)S(=O)(=O)c2ccccc2)c1 (stereo not given) | nt | 2% | 0.6% | -5%
COc1ccc(NC(=O)N(C)C[C@H]2Oc3ccc(NS(=O)(=O)c4ccccc4)cc3C(=O)N([C@H](C)CO)C[C@@H]2C)cc1 | nt | 0% | -0.8% | nt
CCC(=O)NC(c1ccc(N(C)C)cc1)c1c(O)ccc2ccccc12 (stereo not given) | 3 | 3% | -0.1% | -3%
SMILES | GLA inh pH 4.5 | Rango dissoc inh | Rango complex inh | miR-21 reporter
CCCc1nnc2n1N=C(c1ccc([N+](=O)[O-])cc1)CS2 | -1 | -2% | -0.2% | -4%
CC1CC(C)CN(S(=O)(=O)N2CCCC(C(=O)NCCc3ccccc3)C2)C1 (stereo not given) | nt | -3% | 3.7% | 0%
COC/C=C/C1=CC2=CC(=O)C(C)(OC(=O)c3cnc4ccccc4n3)C(=O)C2=CN1CCCCO (stereo not given) | 5&-5 | -12% | -3.1% | 6%
Brc1ccc(/C=N/N2CCN(C3c4ccccc4-c4ccccc43)CC2)s1 | 0 | 1% | ? | -2%
COc1ccc(NC(=O)COC(=O)C2CC(=O)N(CCc3ccc(OC)c(OC)c3)C2)cc1Cl (stereo not given) | nt | -9% | 0.1% | nt
c1ccc(C2Nc3ccccc3-c3nc4ccccc4n32)nc1 (stereo not given) | 3 | -10% | -1.2% | -13%
CCC(C)NC(=O)c1cc(CC(C)C)on1 (stereo not given) | 2 | -3% | -2.9% | -15%
O=C(CSc1ccc(-c2cccs2)nn1)N1CCCCCC1 | 5 | 1% | -2.0% | -47%
CCCCCC1=NN2C(=O)CC(=O)N=C2S1 | 5 | -21% | -5.3% | -1%
CS(=O)(=O)N(Cc1ccccc1)c1ccccc1C(=O)Nc1ccccc1C(=O)NCc1ccco1 | -6 | 12% | 0.3% | -1%
O=C(CNC(=O)N1CC(=O)Nc2ccccc21)NCc1ccccc1Cl | nt | 11% | 0.5% | -3%
Cc1ccc(C(O)(COC(=O)C(C)C)COC(=O)C(C)C)c(O)c1 | 4 | 2% | 0.0% | 0%
COc1cc(NC(=O)Cc2ccccc2)c(C(=O)O)cc1OC | 6 | 4% | 1.9% | 2%

An excerpt; count on the stated rates, not on these rows.
